Source: PubChem BioAssay (National Center for Advancing Translational Sciences (NCATS))
VDR inh: vitamin D3 receptor (human) inhibition; AID 504847; P11473; Potency, µM, for inactives: max response, negative = inhibition, usual class: inhibitors; 0.93% of 400,000 active; VDR-SRC2-3 peptide fluorescence polarization, 2 h; active = well fitted inhibition curve with a large enough effect; inconclusive = small, poorly fitted or top-dose-only effect, or another doubt; inactive = no such curve, though single readings can be large or run the other way; note: series mostly up to about 120 µM
Target sequence (P11473 whole entry, looked up): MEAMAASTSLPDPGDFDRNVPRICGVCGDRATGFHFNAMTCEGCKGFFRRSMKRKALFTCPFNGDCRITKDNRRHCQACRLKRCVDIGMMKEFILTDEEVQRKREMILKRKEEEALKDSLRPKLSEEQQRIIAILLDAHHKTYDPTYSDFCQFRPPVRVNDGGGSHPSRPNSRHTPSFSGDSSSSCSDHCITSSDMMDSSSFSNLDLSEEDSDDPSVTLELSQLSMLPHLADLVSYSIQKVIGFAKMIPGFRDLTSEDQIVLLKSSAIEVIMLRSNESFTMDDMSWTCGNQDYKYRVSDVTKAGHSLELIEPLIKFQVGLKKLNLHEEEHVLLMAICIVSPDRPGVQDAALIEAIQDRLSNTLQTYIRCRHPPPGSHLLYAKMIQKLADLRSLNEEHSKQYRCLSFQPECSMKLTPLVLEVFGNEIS
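VDR–SRC2-3 interaction, FP format. Cmpds 23 nl via pintool, brief spin, 2 h ambient incubation.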
* marks the source's active call; other numbers are inactive results; ? = inconclusive; & = joins results of further samples. % is set by controls: 0 for no effect and ±100 for the full control effect; potency is the fitted concentration of half-maximal effect.

SMILES	VDR inh
Cc1cc(C)c(S(=O)(=O)ON2C(=O)c3ccccc3C2=O)cc1C	32µM*
Cc1nc2ccc(S(=O)(=O)N(C)CC(=O)Nc3ccc(C(C)C)cc3)cc2s1	7%
Cc1nnc2ccc(N3CCOCC3)nn12	-14%
CCOC(=O)N1CCN(C(=O)c2cnn3c(C(F)(F)F)cc(-c4cccs4)nc23)CC1	-5%
COc1c(F)c(F)c(C(=O)Nc2cccc(Cl)c2N2CCOCC2)c(F)c1F	3%
CCN1CCN(C(=O)c2ccc(-c3nc4ccccc4s3)s2)CC1	-7%
COc1ccc(-n2cc(CNCC3CCOCC3)c(-c3cccc(F)c3)n2)cc1	4%
COCCNC(=S)N1CCC(c2nc(-c3ccc(N(C)C)cc3)no2)CC1	-15%
Cc1ccc(S(=O)(=O)n2ccc(OC(=O)c3cccs3)n2)cc1	-26%
CC(C)(C)[C@@H]1C=C(C(=O)N2CCN(Cc3ccc4c(c3)OCO4)CC2)O[C@H](OCc2ccc(CO)cc2)C1	6%
CCN(CC)CCn1c(=N)n(CCO)c2ccccc21	2%
Cc1ccc(-n2cc(-c3ccccc3)c3c(N4CCN(C)CC4)ncnc32)cc1	-20%
Cc1ccc(-c2nnn(CC(=O)N(c3ccc(F)cc3)C(C(=O)NC3CCCC3)c3ccncc3)n2)o1 (stereo not drawn)	-9%
N#CCSc1nc2ccccc2c(=O)n1-c1ccccc1	20%
Cc1ccc(CC(=O)N2CCN(C(=O)c3ccco3)CC2)cc1	20%
O=C(NCc1ccco1)c1cc(S(=O)(=O)N2CCOCC2)ccc1Cl	1%
CCc1ccccc1Nc1nn2c(=O)c3ccc(C(=O)NC(C)c4ccccc4)cc3nc2s1 (stereo not drawn)	12%
COc1ccc(Cl)cc1NC(=O)NCc1ccc2c(c1)OCO2	19%
Cc1cc(N2CCCC2=O)cc(C)c1CN1C(=O)c2ccccc2C1=O	15%
CCOC(=O)CC(NC(=O)c1ccccc1F)c1ccc(C)cc1 (stereo not drawn)	-9%
COc1cccc(-c2cccc(NC(=O)C3CCN(C4CCOCC4)CC3)c2)c1	0%
C=CCn1c(SCC(=O)N(CC)C2CCS(=O)(=O)C2)nc2scc(-c3ccccc3)c2c1=O (stereo not drawn)	-7%
CC1CCC(NC(=O)CNC(=O)Cc2cccc3ccccc23)CC1 (stereo not drawn)	?
CCCCCNC(=O)c1ccc2c(=O)n(CCc3ccccc3)c(=O)[nH]c2c1	-18%
O=C(Nc1ccccc1[N+](=O)[O-])C1COc2ccccc2O1 (stereo not drawn)	-13%
Cn1nc(C(=O)NC2CCC(O)CC2)c2ccccc2c1=O (stereo not drawn)	5%
O=C(CCCOc1ccccc1)N1CCN(c2ccccn2)CC1	14%
COc1ccc(CN2CCNC(=O)C2CC(=O)NCc2cnn(C)c2)cc1OC (stereo not drawn)	-1%
CC(C)Cc1nnc(NC(=O)CSc2nc(O)c(-c3ccccc3)c(=O)[nH]2)s1	4%
O=C(OCc1ccc([N+](=O)[O-])cc1)C1CC(=O)N(c2ccccc2)C1 (stereo not drawn)	-9%
O=C(CC1S/C(=N/N=C2CCCCCC2)NC1=O)Nc1ccc(Br)cc1F (stereo not drawn)	9%
C/C(=N\NC(=O)C1(C)CC1(Br)Br)c1ccc(NC(=O)c2ccc(C)o2)cc1 (stereo not drawn)	?
O=C(CSc1nnc(-c2ccccn2)n1Cc1ccco1)c1ccc(-c2ccccc2)cc1	?
CCC(Oc1cccc(Cl)c1)C(=O)N1CCCN(C)CC1 (stereo not drawn)	-10%
CCCCc1c(O)nc(SCC(=O)c2ccccc2)n(-c2ccccc2)c1=O	-16%
CC1CC[C@@]23CCC4(C)[C@@]5(C)CCC6C(C)(C)C(=O)CC[C@@]6(C)C5C=C[C@@]4(OC2=O)C3C1C (stereo partly drawn)	2%
Cc1cc(OCC(=O)NCC(O)c2ccccc2)c2c(C)c(C)c(=O)oc2c1 (stereo not drawn)	-18%
Cn1c(=O)c2[nH]c(Cc3ccsc3)nc2n(C)c1=O	7%
COc1ccc(-n2c(=O)c3ccccc3n(CC(=O)NC3CCCC3)c2=O)c(OC)c1	-5%
CN(C)C(=O)CCc1ccc2c3c([nH]c2c1)[C@]1(C)[C@@H](C(=O)N2CCCCC2)C[C@H](CC(=O)NCCCn2ccnc2)C(=O)N1CC3	2%
CCOc1ccc(/C=C(\C#N)C(=O)Nc2ccccn2)cc1	-17%
CCOc1ccc(N2C(=O)c3cccnc3C2Nc2ccc(OC)cc2)cc1 (stereo not drawn)	-13%
O=C(COc1nsnc1N1CCOCC1)Nc1ccc([N+](=O)[O-])cc1	-14%
O=C(C1CCN(S(=O)(=O)Cc2ccccc2)CC1)N1CCN(c2cccc(C(F)(F)F)c2)CC1	9%
CN1C(=O)NC(c2ccc(O)cc2)C2=C1CN(c1ccccc1)C2=O (stereo not drawn)	?

Sorted by molar mass (rising): part of the list above
SMILES	VDR inh
O=C(COc1nsnc1N1CCOCC1)Nc1ccc([N+](=O)[O-])cc1	-14%
CCCCc1c(O)nc(SCC(=O)c2ccccc2)n(-c2ccccc2)c1=O	-16%
COc1ccc(-n2c(=O)c3ccccc3n(CC(=O)NC3CCCC3)c2=O)c(OC)c1	-5%
O=C(CSc1nnc(-c2ccccn2)n1Cc1ccco1)c1ccc(-c2ccccc2)cc1	?
CN(C)C(=O)CCc1ccc2c3c([nH]c2c1)[C@]1(C)[C@@H](C(=O)N2CCCCC2)C[C@H](CC(=O)NCCCn2ccnc2)C(=O)N1CC3	2%

(cont.)
SMILES	VDR inh
O=C(CCCCCn1c(=O)[nH]c2ccccc2c1=O)NCCCN1CCN(c2ccccc2F)CC1	-18%
CC(=O)c1nn(-c2cccc(Br)c2)cc1C(=O)c1ccc(Br)cc1	-8%
CC(C)(C)NC(=O)C(c1ccncc1)N(C(=O)Cn1nnc(-c2ccc(F)cc2)n1)c1cccc(F)c1 (stereo not drawn)	-1%
C=CCN1C(=O)CSc2ccc(C(=O)NCCC3=CCCCC3)cc21	-1%
O=C(COC(=O)CCc1ccccc1)NC(c1ccccc1)c1ccccc1	2%
C/C(=C\C(=O)c1ccc(C)o1)Nc1ccc2c(c1)OCO2	6%
O=c1c2cn[nH]c2nc(SCc2ccccc2F)n1-c1ccc(Br)cc1	14%
CCOC(=O)/C(=C\c1ccc([N+](=O)[O-])cc1)C(=O)c1cc(C(C)=O)c(Nc2ccccc2)s1	?
Cc1ccc(CN2C(=O)N/C(=C\c3ccc(-c4ccc(C(=O)O)cc4C)o3)C2=O)cc1	-25%
CCOc1cc(/C=C2/NC(=O)N(Cc3ccccc3F)C2=O)ccc1O	-7%
Fc1cccc(Cl)c1CSc1nnc(-c2ccncc2)o1	1%
CCCSc1nnc2[nH]c(=O)cc(N)n12	4%
Cc1[nH]nc2c1[C@@H](c1ccccc1[N+](=O)[O-])C(C#N)=C(N)O2	17%
COc1ccc(CCNc2oc(Cc3ccccc3)nc2C#N)cc1OC	7%
CCS(=O)(=O)c1ccc2oc(SCC(=O)NC(C)C3CC4CCC3C4)nc2c1 (stereo not drawn)	-5%
COc1ccccc1N1C(=O)CC(N2CCN(c3ccc(Cl)cc3)CC2)C1=O (stereo not drawn)	1%
c1cn2cc(CN3CCOCC3)nc2s1	9%
CCN(CCCNC(=O)c1cc(Nc2ccc(OC)cc2)nc2ccccc12)c1cccc(C)c1	-15%
Cc1ccc(C(=O)N/C(=C/c2ccco2)C(=O)NCCCn2ccnc2)cc1	-22%
COc1cc(OC)cc(C(=O)Nc2ccc3c(c2)N(C2CCCC2)C(=O)c2ccccc2S3)c1	5%
Cc1ccc(N/C=C/C(=O)c2ccc(C)cc2)cc1	-5%
COCC(C)n1c(SCC(=O)c2cc(C)n(C)c2C)nc2ccccc2c1=O (stereo not drawn)	-15%
CCc1noc(C)c1C(=O)OCC(=O)NCc1ccc(Cl)cc1	4%
O=C(CN1C(=O)CC(c2ccco2)Sc2ccccc21)Nc1cccc(C(F)(F)F)c1 (stereo not drawn)	-3%
CCOC(=O)c1[nH]c(C)c(CCC(=O)Nc2ccc(C(C)=O)cc2)c1C	14%
Cc1cccc([C@@H]2[C@@H]3C(=O)N(Cc4ccccc4)C(=O)[C@@H]3[C@]3(CC(C)C)C(=O)N(c4cccc(F)c4)C(=O)N23)c1	6%
CS(=O)(=O)N(CC(=O)Nc1c(F)cccc1F)c1cccc([N+](=O)[O-])c1	-6%
CS(=O)(=O)Nc1cccc(-c2nccc(NCc3cccs3)n2)c1	-13%
COc1ccc(OC)c2c1sc(=NC(=O)C1COc3ccccc3O1)n2C (stereo not drawn)	13%
CCCSc1nc2sc3c(c2c(=O)n1CC)CC(C)(C)OC3	20%

In the list so far, these contain a CF3 group:
SMILES	VDR inh
CCOC(=O)N1CCN(C(=O)c2cnn3c(C(F)(F)F)cc(-c4cccs4)nc23)CC1	-5%
O=C(C1CCN(S(=O)(=O)Cc2ccccc2)CC1)N1CCN(c2cccc(C(F)(F)F)c2)CC1	9%
O=C(CN1C(=O)CC(c2ccco2)Sc2ccccc21)Nc1cccc(C(F)(F)F)c1 (stereo not drawn)	-3%

(list continues)
SMILES	VDR inh
O=C1c2cccc3cccc(c23)C(=O)N1c1nccs1	11%
Oc1[nH]c2ccccc2c1N=Nc1nc(Nc2ccccc2)nc(N2CCOCC2)n1	1%
CCc1ccc(S(=O)(=O)Nc2c(C)n(C)n(-c3ccccc3)c2=O)cc1	4%
CN(C)CCCNCCCNC(=O)c1ccccn1	-13%
CCOC(=O)N1CCN(C(=O)c2cc(OC)cc(OC)c2)CC1	4%
COC(=O)c1c(-c2ccccc2OC)sc2ccc(OC)cc12	0%
O=C(CCN1CCN(CCO)CC1)Nc1ccc(Br)cc1	1%&-30%
CC(C)CC1(C(=O)NCCN2CCOCC2)C=CCN1C(=O)c1ccccc1 (stereo not drawn)	-6%
CCOC(=O)c1ccc(N=c2sc(C(=O)OC)cc(=O)n2-c2ccc(C(=O)OCC)cc2)cc1	?
O=C(CCC(=O)OCC(=O)c1cccc([N+](=O)[O-])c1)NC1CCCCC1	-5%
COc1ccc(OC)c(NC(=O)c2cn(CC(C)C)c(=O)c3cc(OC)c(OC)cc23)c1	8%
Cn1nc2c3ccccc3n(Cc3ccccc3)c2nc1=S	-2%
COc1ccc(N2CCN(C(=O)c3ccc(C)cc3)CC2)c([N+](=O)[O-])c1	-22%
Nc1nc(-c2ccc(NC(=O)c3ccco3)cc2)cs1	16%
CCCCCn1c(=O)[nH]c2cc(C(=O)NCCN3CCC(C)CC3)ccc2c1=O	14%
CCn1c(O)c(N=NC(=O)CNC(=O)Cc2ccccc2)c2ccccc21	11%
CC/C(=N\NC(=O)c1ccc(N2CCCC2=O)cc1)c1ccccc1	-9%
Cc1cc(C2C(=O)CC(=O)CC2c2ccccc2)on1 (stereo not drawn)	-10%
COc1ccccc1CC(=O)Nc1ccc2nc(Nc3cccc(Cl)c3)cc(C)c2c1	4%
OCCC1CN(C/C(Cl)=C/c2ccccc2)CCN1C1CCCC1 (stereo not drawn)	-9%
CC(C)COc1ccc(C(=O)Nc2cccc(-c3nc4ccccc4[nH]3)c2)cc1	-8%
CC(Sc1ccc(Cl)cc1)C(=O)NNC(=O)c1csc(N2CCOCC2)n1 (stereo not drawn)	-5%
Cc1ccc(-n2c(SCC(=O)Nc3ccc4c(c3)OCCO4)nc3c([nH]c4ccccc43)c2=O)cc1	0%
CC1=C(CC(=O)c2ccc(Cl)cc2)C(=O)c2ccccc2C1=O	-14%
COc1cccc(-n2c(=O)c3sccc3n(CC(=O)NC3CCCC3)c2=O)c1	-10%
O=C(CSCc1cnn(-c2ccccc2)c1-n1cccc1)NCc1ccccc1F	-1%
CCc1ccccc1-n1c(N)c(C(=O)OC)c2nc3ccccc3nc21	-13%
Clc1ccc(-c2noc3ncnc(NCCc4ccccc4)c23)cc1	11%
S=C(Nc1ccc2c(c1)OCO2)Nc1ccccc1Cl	-5%
COc1ccc(NC(=O)CC2C(=O)N(c3ccccc3)C(=O)N2CCc2cccs2)cc1 (stereo not drawn)	-7%

Single entries from the results shown:
Result for COc1cccc(-n2c(=O)c3sccc3n(CC(=O)NC3CCCC3)c2=O)c1 in VDR inh: -10%
Result for CC1=C(CC(=O)c2ccc(Cl)cc2)C(=O)c2ccccc2C1=O in VDR inh: -14%
Result for Cc1ccc(-n2c(SCC(=O)Nc3ccc4c(c3)OCCO4)nc3c([nH]c4ccccc43)c2=O)cc1 in VDR inh: 0%

Further records:
SMILES	VDR inh
O=C(CSc1nnc(NC2CCCCC2)s1)NC1CCS(=O)(=O)C1 (stereo not drawn)	15%
COc1ccccc1N1CCN(C(=O)Cn2c(=O)nc(-c3ccccc3)c3ccccc32)CC1	7%
Cc1cc(=O)cc(C)n1-c1ccccc1N	-17%
CN(C)CCOC(=O)C12CC3CC(CC(C3)C1)C2	-2%
O=C1C(Cl)=C(Nc2ccccc2O)C(=O)N1CCc1ccccc1	-29%
CC1Cc2nc(SCC(=O)Nc3nccs3)n(Cc3ccccc3)c(=O)c2S1 (stereo not drawn)	4%
COC1(OC)C(/C=C/c2ccc(C)cc2)C(C#N)(C#N)C1(OC)OC (stereo not drawn)	-2%
O=C1/C(=C\c2cccs2)N=C(c2cccs2)N1Nc1ccccc1	13%
Nc1ccn([C@@H]2O[C@H](CO)[C@@H](O)[C@H]2O)c(=O)n1	7%&-1%
Cc1onc(-c2c(F)cccc2Cl)c1C(=O)OCC(=O)Nc1cccc(S(=O)(=O)N(C)C)c1	-13%
CC(C)C(=O)Nc1nnc(SCC(=O)NCc2ccc3c(c2)OCO3)s1	-12%
CCCCC[C@H]1CN(Cc2ccccc2)C(=O)[C@@H]1CC(=O)NCc1ccccc1	-14%
CCCCN(C)c1c(N2CCC(C(=O)OCC)CC2)c(=O)c1=O	-3%
CC(=O)c1ccc(NC(=O)c2ccc(C)c(S(=O)(=O)N3CCOCC3)c2)cc1	2%
COc1cc(/C=N/NC(=S)NCc2ccccc2)ccc1OCC#N	?

The list is partial; rates above refer to the full screens.
